Screening data: PubChem BioAssay, National Center for Advancing Translational Sciences (NCATS)
PMP22 txn: PMP22 gene transcription modulation. S16 Pmp22-F2sN Schwann cells (luciferase reporters placed in the Pmp22 gene), FLuc/NLuc coincidence luminescence, 24 h. Potency, µM (titrated, usually from 57.5 µM), for inactives: top-dose activity change, negative = inhibition, actives largely listed as inhibitors. 43,000 tested, 2% active. AID 1508649; active = clear falling dose curves in both reporters; inconclusive = both reporters move, but less clearly or upward; inactive = either reporter flat; the % is the NLuc reporter signal; further: on the % scale 0 is the no-effect control and ±100 the full control effect; some results filed as inactive show a strong effect at the top dose
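Schwann cells carrying the coincidence reporter were exposed to library compounds for 24 h at 37C, then lysed and read for FLuc and, after quenching, NLuc luminescence on a CCD imager.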
HTT promoter inh: inhibitors of huntingtin promoter activity; AID 1508623; Potency, µM (doses to about 57.5 µM), for inactives: at the highest dose activity change, negative = inhibition, actives largely listed as inhibitors; 48,000 tested, 0.93% active; HEK293 HTT promoter firefly luciferase reporter (activity 0% = vehicle and -100% = no light), 24 h; active means well fitted inhibition curve with a large enough effect; inconclusive means small, poorly fitted or top-dose-only effect; inactive means no such curve, though single readings can be large or run the other way; further: nearly all actives have a fitted effect of over 50% in size
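HEK293 luciferase promoter-reporter cells (2,500/well) plated 24 h, then compounds added at up to 57.5 uM final for 24 h at 37 °C. Firefly luminescence by Dual-Glo, normalized to vehicle (0%) and zero RLU (-100%).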
* = called active by the depositor; u = inconclusive; x = no result given; & = joins results of further samples; [ ] = remark or other dose. Potency means the concentration at half of the fitted maximal effect.

Preview (2 entries):
SMILES	PMP22 txn	HTT promoter inh
C=Cc1ccc(Cn2c(SCC(=O)N3CCN(c4ccc(F)cc4)CC3)nc3ccccc32)cc1	3.1%	-23.3%
COc1ccc(CCC(=O)NCc2ccc3c(c2)CCN3C(=O)c2ccc(Cl)cc2)cc1	-21.1%	u

The listing, repeating the preview:
SMILES	PMP22 txn	HTT promoter inh
C=Cc1ccc(Cn2c(SCC(=O)N3CCN(c4ccc(F)cc4)CC3)nc3ccccc32)cc1	3.1%	-23.3%
COc1ccc(CCC(=O)NCc2ccc3c(c2)CCN3C(=O)c2ccc(Cl)cc2)cc1	-21.1%	u
COc1cccc(CNC(=O)c2cc(S(=O)(=O)N3CCCCC3)c[nH]2)c1	-13.8%	-9.9%
CCN1CCN(C(=O)c2ccc3c(c2)N(Cc2ccccc2F)C(=O)c2ccccc2S3(=O)=O)CC1	-14.9%	-10.3%
COc1cc(CNC(=O)CCCCC=CC(C)C)ccc1O	x	1.9%
COc1ccc(CCNC(=O)c2ccc3c(c2)nc2n3CCOC2)cc1OC	-129.9%	-7.5%
O=C(Cn1c2ncccc2c(=O)n1-c1ccccc1)NCc1ccccc1	8.8%	-20.5%
CCOc1ccc(NC(=O)c2c(NC(=O)c3ccncc3)sc3c2CCC(C(C)(C)C)C3)cc1 (configuration not stated)	-23.9%	-16.0%[11.5 µM]
COc1cc(C2c3c(-c4c(C)cc(C)cc4O)n[nH]c3C(=O)N2CCO)cc(OC)c1OC (configuration not stated)	-19.4%	-24.6%
CCCCNC(=O)CSC1=Nc2ccccc2C2=NC(CCC(=O)NCc3ccccc3OC)C(=O)N12 (configuration not stated)	u	-8.8%
CCc1nn(CC(=O)NCCCN2CCN(C)CC2)c(=O)c2cc3occc3n12	u	-15.4%
COc1ccc(-c2ccc(NS(=O)(=O)c3ccccc3Cl)cc2)nn1	-16.4%	u
COc1ccc(OC)c(NC(=O)c2cc3cc(C)ccc3n2C)c1	-6.0%	-14.5%
O=C(c1cccc(F)c1)N1CCC(c2c[nH]c3ccccc23)(c2c[nH]c3ccccc23)CC1	-9.4%	u
COc1ccc(C(=O)NC(c2ccccc2Cl)c2cc(Cl)c3cccnc3c2O)cc1 (configuration not stated)	u	8.91µM*
Cc1c(C(=O)NCc2ccccc2Cl)sc2nc3n(c(=O)c12)CCCC3	-54.6%	28.2%
Cc1cccc(NC(=O)Cn2c(=O)n(-c3ccccc3Cl)c(=O)c3c(C)c(C(=O)N(C)C)sc32)c1	4.8%	-0.3%
Cc1cc(C)c(NC(=O)Cn2nnc3sc4c(c3c2=O)CCC(C(C)(C)C)C4)c(C)c1 (configuration not stated)	u	13.6%
COc1ccc(NC(=O)CSc2nnc3scc(-c4ccc(Cl)cc4)n23)cc1	-1.1%	-15.1%
CC(=O)Nc1ccc(NC(=O)c2cc3sccc3n2Cc2ccc(F)cc2)cc1	-0.3%	-13.0%
COCC(C)Nc1ncnc2c1cnn2-c1ccc(C)c(C)c1 (configuration not stated)	u	39.4%[activator]
O=C(CSc1nc2c(oc3ccccc32)c(=O)n1Cc1ccco1)Nc1cccc(Cl)c1	u	-7.0%
Cc1ccc(NC(=O)Cn2c(=O)n(Cc3ccc(F)cc3)c(=O)c3cccnc32)cc1C	u	12.9%
Cn1nc(C(=O)Nc2cc(F)ccc2F)c2c1-c1ccccc1SC2	u	15.0%
CCOc1ccc(C(=O)Nc2ccc3nn(-c4ccc(OC)c(Cl)c4)nc3c2)cc1	8.6%	-13.4%
Cc1ccc(C(C)C)c(OCC(=O)NCC2(N(C)C)CCCCC2)c1	u	-20.6%
CCOC(=O)CSc1nc2cc3c(cc2c(=O)n1Cc1ccc(C(=O)NCCc2ccc(OC)c(OC)c2)cc1)OCO3	-11.9%	-8.1%
COc1cccc2sc(NC(=O)CS(=O)(=O)c3ccc(C)cc3)nc12	-17.3%	-18.6%
CCC12CN3CC(C)(CN(C1)C3c1c(C)n(C)c3ccccc13)C2=O (configuration not stated)	-10.2%	-7.8%
COc1cc(NC(=O)Cn2cc(S(=O)(=O)c3ccccc3)c(=O)c3ccccc32)cc(OC)c1	u	-12.5%
CCOc1ccc(-n2c(C)nc3cc(C(=O)NCc4ccc(C)cc4)ccc32)cc1	44.8%	-28.2%
CCC(CC)C(=O)N1CCc2cc(OC)c(OC)cc2C1COc1ccccc1OC (configuration not stated)	-3.1%	-19.8%
Cc1ccccc1N(C)S(=O)(=O)c1nnc(NC(=O)c2ccccc2F)s1	-62.4%	-16.5%
CCC(=O)N1c2nc(C(C)C)nn2C2(CCCCC2)[C@@H]2CCCC[C@@H]21	-19.1%	u
CN1CCC(=C2c3ccccc3Sc3ccccc32)CC1	x	-1.7%
COc1ccc(-c2nc3ccc(C4=NNC(=O)CC4C)cc3[nH]2)cc1 (configuration not stated)	x	28.5%
Cc1nn(CC(=O)NC2CCC(C)CC2)c(=O)c2c1sc1ccccc12 (configuration not stated)	u	-1.8%
Cc1cccc(C(C)C)c1NC(=O)c1ccc2c(c1)CCCN2S(C)(=O)=O	u	u
CCc1ccc(NC(=O)Cn2ccn(-c3cccc(Cl)c3)c(=O)c2=O)cc1	3.3%	u
Cc1ccc(C)c(N(C)C(=O)c2cn(C)c(=O)c3ccccc23)c1	-70.1%	u
CCOC(=O)C1=C[C@]2(CC)CCCN3CCc4c(n1c1ccccc41)[C@@H]32	x	-2.7%&-11.7%
Cc1cc(C)cc(NC(=O)CCCc2nc(-c3ccccc3Cl)no2)c1	-11.6%	-21.3%
CCC1CCCCN1C(=O)CSc1nc2c([nH]c3ccccc32)c(=O)n1-c1ccc(OC)cc1 (configuration not stated)	u	u
Cc1ccc(CNC(=O)c2cc(C)nc3c2c(C)nn3-c2ccc(C)cc2)cc1	-32.8%	-10.5%
Cc1cc(C)cc(NC(=O)c2sc3nc[nH]c(=O)c3c2C)c1	-24.7%	14.6%
COCCNC(=O)CSc1nnc2[nH]c(=O)cc(C)n12	-0.5%	-6.7%
Cc1cccc(Nc2c3c(nc4nncn24)CCC3)c1	u	-15.4%
Cc1ccc(NC(=O)c2cn3c4c(ccc(Cl)c4c2=O)OC(C)C3)c(C)c1 (configuration not stated)	u	-10.5%
CCCN(CCC)CC(O)Cn1cc(/C=C/C(=O)c2ccc(Br)cc2)c2ccccc21 (configuration not stated)	u	-6.4%
O=C(Nc1nnc(S(=O)(=O)Nc2ccccc2)s1)C1CCCCC1	31.6%	-27.6%
Later entries:
SMILES	PMP22 txn	HTT promoter inh
CCC(C(=O)Nc1c(C)cc(C)cc1C)n1c(=O)c(-c2ccccc2NC(C)=O)nc2ccccc21 (configuration not stated)	-12.8%	-9.5%
COc1ccc(NC(=O)C2=C(C)Nc3nc(CCCO)nn3C2c2ccc(O)cc2)cc1 (configuration not stated)	8.1%	-14.1%
CCc1ccc(C(=O)c2cn(CC(=O)Nc3ccc(OC)cc3)c3cc4c(cc3c2=O)OCCO4)cc1	u	-10.2%
Cc1ccc(S(=O)(=O)NCCc2nnc3ccc(SCc4ccc(F)cc4)nn23)cc1	-28.7%	-23.6%
COc1ccc(Cl)cc1NC(=O)CSc1nnc(C)n2c1cc1sccc12	-8.9%	1.8%
CC(C)Oc1ccc(C(=O)N(Cc2ccc(N(C)C)cc2)Cc2ccco2)cc1	u	-24.8%
COc1ccc(-c2nc(SCC(=O)NC3CCCC3)c(-c3ccc(F)cc3)[nH]2)cc1	u	u
CCOc1ccc(N2CC(NC(=O)Cc3cccs3)CC2=O)cc1 (configuration not stated)	1.9%	4.5%
COc1ccc(-c2noc(CN(C(=O)c3ccccc3Cl)C(C)C)n2)cc1	-62.0%	-24.7%
Cc1cccc(C)c1NC(=O)Cn1cc(S(=O)(=O)Cc2ccc(F)cc2)c2ccccc21	-8.7%	-19.5%
CCCC1=Nc2cc(C(=O)NCc3ccccc3)ccc2Sc2ccccc21	11.5µM*	u
CCOc1ccc(CCNC(=O)c2[nH]c3cc(OC)ccc3c2Sc2ccccc2)cc1OCC	4.2%	-29.9%
CC(C)C(=O)OCc1cc(=O)n2nc(C3CCCCC3)sc2n1	-37.2%	13.1%
CC(C)Sc1ncc(Cl)c(C(=O)Nc2ccc(S(=O)(=O)N(C)c3ccccc3)cc2)n1	u	u
Cc1ccc(NC(=O)c2cnn(-c3ccc(C)c(C)c3)c2C2CCN(C(=O)OC(C)(C)C)CC2)c(C)c1	u	u
COc1ccccc1OCCn1c(COc2cc(C)ccc2C)nc2ccccc21	-4.0%	1.4%
CCOc1ccc(C2CC(=O)NC(NC(=O)c3ccc(C)cc3)=N2)cc1 (configuration not stated)	0.2%	31.8%[activator]
Cc1cc(C)cc(NC(=O)N2CCN3CCCCC3C2)c1 (configuration not stated)	2.0%	11.6%
Cc1cc(C)cc(N(C)S(=O)(=O)c2nnc(NC(=O)COc3ccc(C)c(C)c3)s2)c1	u	-13.3%
CCC(=O)N1CCc2cc(Br)cc(S(=O)(=O)N3CCCC(C(=O)Nc4ccc(C(C)C)cc4)C3)c21 (configuration not stated)	u	-6.5%

An excerpt of these results, as comma-separated lines:
SMILES,PMP22 txn,HTT promoter inh
CC(C)Sc1ncc(Cl)c(C(=O)Nc2ccc(S(=O)(=O)N(C)c3ccccc3)cc2)n1,u,u
Cc1ccc(NC(=O)c2cnn(-c3ccc(C)c(C)c3)c2C2CCN(C(=O)OC(C)(C)C)CC2)c(C)c1,u,u
COc1ccccc1OCCn1c(COc2cc(C)ccc2C)nc2ccccc21,-4.0%,1.4%
CCOc1ccc(C2CC(=O)NC(NC(=O)c3ccc(C)cc3)=N2)cc1 (configuration not stated),0.2%,31.8%[activator]
Cc1cc(C)cc(NC(=O)N2CCN3CCCCC3C2)c1 (configuration not stated),2.0%,11.6%
Cc1cc(C)cc(N(C)S(=O)(=O)c2nnc(NC(=O)COc3ccc(C)c(C)c3)s2)c1,u,-13.3%

The listing continues:
SMILES	PMP22 txn	HTT promoter inh
CCN1CCN(c2ncc3c(n2)CCN(Cc2cc(Br)cs2)C3)CC1	-47.2%	-20.0%
COc1ccc(Cl)cc1NC(=O)c1c(NCc2cccs2)sc2c1CCCC2	-10.2%	-9.0%
Cc1ccc(Cl)cc1NC(=O)NC1COc2ccccc2C1 (configuration not stated)	u	-6.0%
O=C(/C=C/N1C[C@@H]2C[C@@H]1CN2c1ccccn1)c1ccccc1O	x	-10.7%
CCN(C(=O)Cn1ncc2c(=O)oc3ccccc3c21)c1ccccc1F	0.4%	1.0%
O=C(NCc1ccccc1)C1CCN(S(=O)(=O)c2ccc3[nH]c(=O)ccc3c2)CC1	-18.3%	8.9%
CCc1cc2c(-c3ccccc3)cc(=O)oc2c2c1OCN(Cc1ccc(F)cc1)C2	u	-27.1%
O=C(COc1ccccc1)NCC(c1ccc(Cl)cc1)N1CCCCC1 (configuration not stated)	-13.3%	-24.5%
CCC(=O)N1CCc2cc(S(=O)(=O)NC(CC(C)C)C(=O)Nc3cccc(C)c3C)ccc21 (configuration not stated)	-7.8%	-16.8%
O=C1CSC2(C(=O)N(Cc3ccccc3F)c3ccccc32)N1c1cccc(C(F)(F)F)c1 (configuration not stated)	u	u
COc1ccc(-n2cc(-c3ccccc3)c3c(NC4CCCC4)ncnc32)cc1	u	u
CN(C(=O)CCNC(=O)Cn1cnc2ccccc2c1=O)c1ccccc1F	-12.8%	-2.9%
O=C(Cn1ncc2c3ccccc3n(Cc3ccccc3)c2c1=O)NC1CCCCCC1	-1.3%	0.8%
Cc1ccc2nc3c(cc(C(=O)NCC4CCCO4)c(=N)n3C(C)C)c(=O)n2c1 (configuration not stated)	-21.2%	-19.3%
CCc1ccc(S(=O)(=O)c2cn(C)c3cc(N4CCN(CC)CC4)c(F)cc3c2=O)cc1	u	-10.6%
Cc1ccc(-c2nn3c(-c4ccc(C)cc4)nnc3c3ccccc23)cc1	1.1%	-3.7%
CCn1nc(C)c2c(-c3ccccc3)cc(=O)n(C(C)C(=O)Nc3cc(C)ccc3C)c21 (configuration not stated)	0.6%	-22.2%
Cc1ccc(-c2noc(CSc3nnc(C)n3-c3ccc(C)c(C)c3)n2)cc1	u	u
Cc1noc(/C=C/N(C)C)c1S(=O)(=O)N1CCCC(C(=O)Nc2ccc(F)cc2F)C1 (configuration not stated)	-39.7%	-6.8%
CCC(C)SSc1ncc[nH]1 (configuration not stated)	x	-16.9%
COCCCNC(=O)Cn1cnc2sc(C)c(S(=O)(=O)N3CCN(c4ccccc4OC)CC3)c2c1=O	-4.9%	-14.2%
CCc1ccc(NC(=O)Cn2c(=O)n(Cc3ccc4c(c3)OCO4)c(=O)c3oc4ccccc4c32)cc1	-23.1%	-0.9%
Cn1c(=O)c2c(-c3ccccc3)n(-c3cccc(C#N)c3)cc2n(C)c1=O	-18.6%	-10.5%
Cc1cc(N2CCN(c3cccc(C(F)(F)F)c3)CC2)n2nc(-c3ccccc3)nc2n1	4.7%	18.9%
O=c1c2sc3ccccc3c2n(Cc2ccc(F)cc2)c(=O)n1Cc1ccco1	u	-11.3%
COc1ccc(Cl)cc1NC(=O)CSc1c2c(nc3ccccc13)CCC2	u	-26.3%
O=C(CSc1nccn1Cc1ccc(Cl)cc1)Nc1ccc2c(c1)OCO2	-25.3%	u
Cc1ccc(CNC(=O)c2c[nH]c3ccc(S(=O)(=O)N4CCOCC4)cc3c2=O)cc1	-6.7%	0.2%
O=C(C1COc2ccccc2O1)N(Cc1cccnc1)c1nc2ccc(Cl)cc2s1 (configuration not stated)	-17.7%	-5.1%
CCOC(=O)CC(NC(=O)CCc1c(C)nc2ncnn2c1C)c1ccc(OC(C)C)cc1 (configuration not stated)	-1.9%	0.6%

The list is partial, so the mix of outcomes need not match the whole.
